Screening data deposited in PubChem BioAssay by National Center for Advancing Translational Sciences (NCATS).
CtBP-E1A inh: inhibitors of CtBP/E1A interaction; activity change, % (no concentration beside the values); 0.49% of 340,000 active; AlphaScreen GST-E1A/His-CtBP binding, 1536-well; stronger effect = lower value; control for the full effect not named in the record; in the data active means activity change below about -65%; inconclusive means about -30% to -65%; inactive means above about -30%; further: on the % scale 0 is the no-effect control and ±100 the full control effect; compound concentration not given in the record
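Protein mix (5X: 125 nM each GST-E1A, His-CtBP) was incubated with pinned compound 2 h at 37 deg C in dark, in 50 mM Tris pH 8.0 buffer with 300 mM NaCl. Glutathione donor and nickel acceptor beads followed; AlphaScreen signal read after 1 h.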
PINK1 modulator: PINK1 expression modulation. PINK1 immunofluorescence, high-content cytometry, 24 h. Potency, µM (doses to about 76.6 µM), for inactives: at the top dose activation (PINK1 increase), hits mostly activators. 0.2% of 410,000 active. AID 624263; active = well fitted activation curve with a large enough effect; inconclusive = small, poorly fitted or top-dose-only effect; inactive = flat fitted curve, though single readings scatter; cell line not stated here;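 further: potency means the concentration at half of the fitted maximal effect; % of control where 0% means no effect; nearly all actives have a fitted effect of over 65% in size; a mitochondrial uncoupler was the plate control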
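Cells are seeded, rested 12 hours, then given compound at five concentrations or DMSO for 24 hours. After fixation, blocking and antibody staining, PINK1 amount and mitochondrial localization are scored; CCCP serves as control.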
Six1-Eya2 blk: Six1/Eya2 interaction inhibition; AlphaScreen GST-Six1/His-Eya2 binding, biochemical; stronger effect = lower value; control for the full effect not named in the record; activity change, % (no concentration beside the values); 0.56% of 360,000 active; AID 651725; in the data active = activity change below about -65%; inconclusive = about -30% to -65%; inactive = above about -30%; further: on the % scale 0 is the no-effect control and ±100 the full control effect; compound concentration not given in the record
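Six1/Eya2 binding was read as AlphaScreen signal after compounds were pinned into GST-Six1 plus His-tagged Eya2 (5X stock 250/500 nM) in pH 8.0 Tris/NaCl/TCEP buffer, beads added, then incubated 1 h, 37 C, dark.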
TRPML1 agonist: agonists of human TRPML1 channel. TRPML1-expressing cells, Ca2+ dye fluorescence, FDSS; host cell line not named in the record; reference of the full effect not given here. AID 624414. activation, % (concentration not given with the values). Q9GZU1. 0.12% of 410,000 active; in the data active = activation above about 50%; inconclusive = about 30% to 50%; inactive = below about 30%; further: 0% is about no effect; the text of the record puts the active cut at 80%
Target sequence (Q9GZU1 whole entry, looked up): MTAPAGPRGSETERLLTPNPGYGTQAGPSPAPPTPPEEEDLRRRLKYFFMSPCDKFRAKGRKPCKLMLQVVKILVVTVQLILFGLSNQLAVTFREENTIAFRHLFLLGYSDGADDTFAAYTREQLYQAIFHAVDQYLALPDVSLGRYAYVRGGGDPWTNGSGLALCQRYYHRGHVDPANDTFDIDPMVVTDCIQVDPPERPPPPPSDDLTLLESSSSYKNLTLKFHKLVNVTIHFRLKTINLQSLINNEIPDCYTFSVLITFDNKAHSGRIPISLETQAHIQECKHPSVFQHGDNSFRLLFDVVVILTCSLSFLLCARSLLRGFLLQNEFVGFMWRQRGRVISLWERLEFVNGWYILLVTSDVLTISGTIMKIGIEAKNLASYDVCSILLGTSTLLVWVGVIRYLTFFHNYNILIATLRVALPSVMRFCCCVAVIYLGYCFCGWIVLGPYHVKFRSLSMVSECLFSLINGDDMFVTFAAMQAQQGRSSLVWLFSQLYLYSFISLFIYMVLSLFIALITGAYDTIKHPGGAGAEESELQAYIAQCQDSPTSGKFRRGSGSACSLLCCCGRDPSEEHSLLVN
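Agonist activity was taken from a 110 s kinetic Ca2+ dye read on the FDSS after pinning compounds onto TRPML1-DL cells. The cells were seeded at 1,500/well with Tet inducer, incubated about 16 h, then dye-loaded at room temperature.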
TRPML1 inh: blocks the human TRPML1 channel. TRPML1-inducible cells, Ca2+ dye fluorescence, FDSS; stronger effect = lower value; inhibition of EC80 agonist-evoked calcium signal. activity change, negative = inhibition, % (no concentration beside the values). Q9GZU1. AID 624415. 0.02% of 390,000 active; in the data active means activity change below about -50%; inconclusive means about -30% to -50%; inactive means above about -30%;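 further: stimulus is agonist 54-4 at its EC80 concentration; on the % scale 0 is the no-effect control and ±100 the full control effect; compound concentration not given in the record; the text of the record puts the active cut at -80%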
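TRPML1-DL cells, Tet-induced overnight (~16 h, 37 °C) at 1,500 cells/well, were loaded with Ca8 no-wash dye plus quencher for 45-90 min at room temperature. Compounds were pinned during FDSS kinetic reading; agonist 54-4 at EC80 (4 uM final) then added.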
D2 ag: human D2 receptor agonism in beta-arrestin assay; DiscoveRx PathHunter D2 beta-arrestin, luminescence, 90 min; 100% = 57 uM dopamine signal; P14416; 0.084% of 360,000 active; activation, % (no concentration beside the values); in the data active = activation above about 40%; inconclusive = about 15% to 40%; inactive = below about 15%; further: compound concentration not given in the record; the text of the record calls up to 30% inactive
Target sequence (P14416 whole entry, looked up): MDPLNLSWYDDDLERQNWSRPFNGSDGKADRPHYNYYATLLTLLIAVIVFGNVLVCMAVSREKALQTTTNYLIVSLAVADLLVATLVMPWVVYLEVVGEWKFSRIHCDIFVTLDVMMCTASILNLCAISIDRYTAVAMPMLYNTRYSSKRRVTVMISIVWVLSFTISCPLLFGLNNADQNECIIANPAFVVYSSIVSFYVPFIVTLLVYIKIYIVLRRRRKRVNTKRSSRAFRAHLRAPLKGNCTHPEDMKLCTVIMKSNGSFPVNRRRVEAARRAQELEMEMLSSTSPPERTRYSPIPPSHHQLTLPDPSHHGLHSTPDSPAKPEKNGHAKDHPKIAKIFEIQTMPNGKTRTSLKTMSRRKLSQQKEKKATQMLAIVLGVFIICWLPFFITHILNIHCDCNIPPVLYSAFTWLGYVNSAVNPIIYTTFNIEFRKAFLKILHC
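DiscoveRx PathHunter D2 beta-arrestin cells (2,100/well) attached overnight, then compound-stimulated 90 min at 37 C in HBSS/10 mM HEPES/0.1% Tween-20 buffer; beta-galactosidase complementation read by luminescence after 1 h at ambient temperature. Dopamine 57 uM final (EC100) as control.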
Active calls of the source: *; ? = inconclusive; · = no result given.

compound | CtBP-E1A inh | PINK1 modulator | Six1-Eya2 blk | TRPML1 agonist | TRPML1 inh | D2 ag
Cc1cccc(C)c1NC(=O)CNc1ncnc2sc(C)c(C)c12 | -3 | 4.7% | 4 | -0.5 | 11 | -4.8
CCn1c(SC(C)C(=O)Nc2nnc(C)s2)nnc1-c1ccco1 (centres undefined) | -11 | 1.2% | 3 | -0.3 | -4 | 1.2
Cc1oc2cc(O)ccc2c(=O)c1Oc1ccc(F)cc1 | -3 | 0.3% | 0 | · | · | 2.9
COC(=O)[C@]12CCCCC=C1N(Cc1ccco1)C(=O)[C@H](CC(=O)NCc1cccc(C(F)(F)F)c1)C2 | -10 | 2.4% | -5 | 0.2 | · | ·
COC(=O)c1cc(C(=O)N2CCOCC2)cc([N+](=O)[O-])c1 | 4 | 1.6% | 2 | -0.4 | 20 | -0.9
CCOc1ccccc1NC(=O)Nc1ccc2c(c1)OCO2 | -5 | -1.1% | -13 | 2.7 | -18 | -5.0
CCOC(=O)c1ccc(NC(=O)CNNC(=O)COc2ccccc2C)cc1 | -7 | 1.4% | 0 | 1.8 | 24 | -0.5
CCC(=O)Nc1nnc(/C=C/c2ccccc2)s1 | 0 | 5.6% | 0 | · | · | -6.2
CCCS(=O)(=O)NC(=O)C1(C)CCCN(C(=O)c2cccnc2Oc2ccccc2)C1 (centres undefined) | -2 | 0.0% | 2 | -0.3 | · | 4.4
CN(C(=O)c1ccc(S(=O)(=O)c2cccc(Cl)c2)c([N+](=O)[O-])c1)C1CCCCC1 | 1 | -5.2% | -12 | 0.6 | 13 | 0.1
Cc1ccc(NC(=O)C(=O)c2c(-c3ccccc3)cc3ccccn23)cc1S(=O)(=O)N1CCOCC1 | -12 | · | -15 | -0.2 | -12 | 5.3
COC(=O)Nc1cc([N+](=O)[O-])ccc1OC | 11 | 1.8% | 5 | 1.2 | -13 | -0.7
CN(CC(O)COCc1cccs1)C1CCCCC1 (centres undefined) | 0 | 0.0% | -3 | -0.5 | 37 | 0.1
O=C(CCc1nnc2n(Cc3ccccc3Cl)c(=O)c3ccccc3n12)Nc1ccc(F)cc1 | · | 0.5% | · | -0.4 | 18 | ·
Oc1ccc(C2C[C@H]3CC[C@@H]2C3)cc1O (some centres undefined) | 6 | 10% | -4 | -1.3 | 7 | 4.2
CCOC(=O)CN1C(=O)C(Sc2n[nH]c(-c3ccc(O)cc3)n2)CCc2ccccc21 (centres undefined) | -7 | 2.9% | -19 | 1.0 | -27 | -3.4
O=C(Nc1ccnc(=O)[nH]1)c1sc2ccccc2c1Cl | 5 | 0.9% | 1 | · | · | -2.4
CCCCN(Cc1ccccc1)S(=O)(=O)c1cc(Br)cc2c1N(C(=O)C1CC1)CC2 | · | 5.1% | · | -0.4 | 60 | ·
CC(=O)c1ccc(Sc2ccccc2)c([N+](=O)[O-])c1 | -13 | -0.3% | -25 | 2.2 | -7 | 2.3
CCCS(=O)(=O)N1CCCC(C(=O)NCc2ccc(C)cc2)C1 (centres undefined) | 9 | 0.2% | 5 | -1.2 | 2 | 5.9
CCCCc1nc2cc(C(=O)NC(C)c3cnn(C)c3)ccc2o1 (centres undefined) | · | 1.9% | 4 | -0.1 | 4 | 2.9
CC(=O)Nc1ccc(S(=O)(=O)NCC(=O)OCC(=O)NC(=O)c2cccn2C)cc1 | 0 | -1.5% | -8 | 0.5 | -8 | -2.1
CCOC(=O)c1sc(NN=C(C(=O)OC)C(=O)OC)c(C(=O)OCC)c1C | -20 | 11% | -29 | 0.2 | -2 | -6.4
Cc1csc(NC(=O)CSc2nnc(-c3ccncc3)o2)n1 | -16 | -4.0% | -10 | 0.0 | -8 | 1.3
CCc1ccc(-c2cc(C)no2)cc1S(=O)(=O)N1CCN(c2cccc(Cl)c2)CC1 | · | 6.6% | · | 1.4 | 17 | ·

Going on with the list.
SMILES,CtBP-E1A inh,PINK1 modulator,Six1-Eya2 blk,TRPML1 agonist,TRPML1 inh,D2 ag
CC1(C(=O)O)CCC(C(=O)N2CCCCC2)C1(C)C (centres undefined),-1,1.7%,-13,-1.1,-1,-5.7
CC(O)(c1ccccc1)c1nc(-c2ccc(F)c(Cl)c2)cs1 (centres undefined),-12,6.8%,2,-0.2,·,8.7
Cc1cc(C(=O)CN2C(=O)NC3(CCCc4ccccc43)C2=O)c(C)n1Cc1cccs1 (centres undefined),-2,0.8%,-11,0.5,0,-0.3
O=[N+]([O-])c1c(Nc2ccc(O)cc2)cc(N2CCOCC2)c2nonc12,·,1.3%,-22,-0.7,-7,-4.9
COc1cc(Cl)ccc1NC(=O)COc1ccccc1C(=O)NN,-6,0.9%,6,3.5,-3,1.7
Cc1ccccc1N(C(=O)Cc1ccsc1)C(C(=O)NC1CCCCC1)c1ccc(F)cc1 (centres undefined),7,·,6,0.5,11,-1.8
CC1CC(C)CN(C(=O)Cn2c(=O)oc3cc(S(=O)(=O)N4CCCC4)ccc32)C1 (centres undefined),2,-0.5%,2,-0.3,24,2.1
C[C@H](CO)N1C[C@H](C)[C@@H](CN(C)C(=O)Nc2ccccc2)Oc2ncc(-c3ccc(C#N)cc3)cc2C1=O,7,-1.4%,16,-0.3,16,-9.2
Cc1[nH][nH]c(=O)c1C(c1ccc(-c2ccccc2C(=O)O)o1)c1c(C)[nH][nH]c1=O,1,-0.3%,?,-0.2,16,0.1
CCCC/C(O)=C1\C(=O)CCCC1=NCCc1c(C)[nH]c2ccccc12,-8,2.3%,-13,·,·,12
Cc1ccc(N2CC(NC(=O)CCCc3ccccc3)CC2=O)cc1 (centres undefined),·,-0.9%,·,-0.9,9,·
Cc1ccc2c(c1)N(C(=O)CCC(=O)N1CCCCC1)CCO2,-3,0.6%,0,-0.1,18,5.4
O=C(O)c1cccnc1C(=O)N1CCc2c([nH]c3ccccc23)C1C(F)(F)F (centres undefined),5,-0.9%,-1,0.1,-3,4.2
CC(NC(=O)/C(=C/c1ccc(OC(F)F)cc1)c1ccccc1)c1ccccc1 (centres undefined),-11,45µM*,15,6.5,52,-0.9
OC[C@@H]1CN(Cc2ccco2)C[C@H](n2cnc3c(NCc4ccc(F)cc4)ncnc32)O1,4,0.9%,1,-0.9,·,4.6
O=C(Nc1cccc(-c2cccc(F)c2)c1)C1CCN(C2CCC2)CC1,·,2.7%,0,10,29,-4.0
Clc1ccc(Oc2ccccc2)c2ncccc12,0,3.8%,7,0.4,5,1.3
CCCc1nnc(NC(=O)c2ccc([N+](=O)[O-])cc2)s1,6,?,6,0.1,19,2.6
COc1ccc(Nc2ccc(S(=O)(=O)N3CCCCCC3)cc2[N+](=O)[O-])cc1,-66*,-1.5%,?,2.1,42,1.6
O=C(NCc1nc(-c2ccc(Cl)cc2)no1)c1ccco1,1,0.4%,-2,1.7,-8,0.3
CCc1ccc(N2CC(C(=O)OCC(=O)Nc3ccc(C(C)=O)cc3)CC2=O)cc1 (centres undefined),1,1.0%,4,0.4,-2,5.5
O=C(c1ccco1)N1CCN(Cc2cc(=O)c(OCc3c(F)cccc3Cl)co2)CC1,-1,1.7%,-9,-0.5,31,-0.9
CCCOC(=O)c1cccc(NC(=O)c2c(-c3ccccc3Cl)noc2C)c1,·,3.9%,·,1.4,-3,·
Cc1ccc(/C=C/C(=O)NCc2cccs2)c(C)c1,0,5.8%,18,0.2,-4,-1.8
COc1ccc2cc(C(=O)C3CCCN(C(=O)C4=NN(C)C(=O)CC4)C3)ccc2c1 (centres undefined),0,-1.2%,0,-0.7,-1,0.0
O=C(O)C(=Cc1ccnc2ccccc12)C(=O)O,4,1.3%,1,-0.8,18,-0.3
CCOc1c2ccc(C(=O)NC3CCCc4ccccc43)cc2nn1C (centres undefined),0,0.4%,4,-0.8,-4,0.3
COc1ccc(NC(=O)CSc2ccc3nc(-c4ccccc4)cn3n2)cc1OC,·,-0.2%,·,-1.2,-4,·
C=CCCC(=O)N1CCCC(C(=O)c2cccc(OC)c2)C1 (centres undefined),·,-1.0%,5,-0.3,-14,-3.6
Cc1ccc(CN2CCNC(=O)C2CC(=O)NCCCn2nnc3ccccc32)cc1 (centres undefined),3,-0.3%,-3,-0.2,-4,-0.9

Part of the list above, with values under each structure:
Second line of a record: CtBP-E1A inh, PINK1 modulator, Six1-Eya2 blk, TRPML1 agonist, TRPML1 inh, D2 ag
> OC[C@@H]1CN(Cc2ccco2)C[C@H](n2cnc3c(NCc4ccc(F)cc4)ncnc32)O1
 : 4, 0.9%, 1, -0.9, ·, 4.6
> CCCc1nnc(NC(=O)c2ccc([N+](=O)[O-])cc2)s1
 : 6, ?, 6, 0.1, 19, 2.6
> CC(NC(=O)/C(=C/c1ccc(OC(F)F)cc1)c1ccccc1)c1ccccc1 (centres undefined)
 : -11, 45µM*, 15, 6.5, 52, -0.9

Next part:
SMILES,CtBP-E1A inh,PINK1 modulator,Six1-Eya2 blk,TRPML1 agonist,TRPML1 inh,D2 ag
COc1ccc(CN(C)S(=O)(=O)c2nnc(NC(=O)c3cccc(F)c3)s2)cc1OC,-1,3.3%,0,-0.7,-4,0.8
Cc1noc(C)c1NC(=O)N(C)C[C@@H]1Oc2ncc(Br)cc2C(=O)N([C@@H](C)CO)C[C@H]1C,5,0.4%,-1,-0.5,12,-7.5
O=C(COC(=O)CCC(=O)c1ccccc1)NCCc1ccccc1,1,-0.9%,34,1.5,3,-3.4
O=C(NC(=S)NC1CCCc2ccccc21)c1ccco1 (centres undefined),-7,7.8%,-15,1.9,-6,-6.3

Fetched one by one from the list above (2):
SMILES,CtBP-E1A inh,PINK1 modulator,Six1-Eya2 blk,TRPML1 agonist,TRPML1 inh,D2 ag
COc1ccc(CN(C)S(=O)(=O)c2nnc(NC(=O)c3cccc(F)c3)s2)cc1OC,-1,3.3%,0,-0.7,-4,0.8
Cc1noc(C)c1NC(=O)N(C)C[C@@H]1Oc2ncc(Br)cc2C(=O)N([C@@H](C)CO)C[C@H]1C,5,0.4%,-1,-0.5,12,-7.5
